# Vaccinia Venus: inhibitors of vaccinia virus (Venus reporter). Vaccinia virus Venus reporter expression, fluorescence. Potency, µM (top dose mostly 36.5 µM), for inactives: top-dose activity change, negative = inhibition, most hits filed as inhibitors. 0.46% of 330,000 active. AID 720580; active means well fitted inhibition curve with a large enough effect; inconclusive means small, poorly fitted or top-dose-only effect; inactive means no such curve, though single readings can be large or run the other way; tested in A549 cells; further: nearly all actives have a fitted effect of over 30% in size; inactives centre near -10
# Vaccinia mCherry: vaccinia inhibition (mCherry reporter). Vaccinia virus mCherry reporter infection, fluorescence; about a quarter of the inactives have no number. Potency, µM (doses to about 36.5 µM), inactives show top-dose activity change, negative = inhibition, actives largely listed as inhibitors. 0.63% of 310,000 active; active = well fitted inhibition curve with a large enough effect; inconclusive = small, poorly fitted or top-dose-only effect; inactive = no such curve, though single readings can be large or run the other way; tested in A549 cells; further: nearly all actives have a fitted effect of over 35% in size; inactives centre near -10
# * hit, by the source's call; i = inactive; ? = inconclusive; . = no result given; & = joins results of further samples; [ ] = another dose, or the depositor's remark. On the % scale 0 is the no-effect control and ±100 the full control effect; potency means the concentration at half of the fitted maximal effect. Compounds were not picked by outcome; 0.86% or so of the library scored in one or more.
SMILES,Vaccinia Venus,Vaccinia mCherry
CC1CN(c2ccc([N+](=O)[O-])c(N3CCCCC3)c2)CCN1 (configuration not stated),-10%,-18%
Nc1cc(F)ccc1N1CCCCCC1,-2%,i
Cc1ccc(NC(=O)CCn2nc([N+](=O)[O-])cc2C)nc1,-9%,-3%
O=C(CNc1cccc(S(=O)(=O)N2CCOCC2)c1)Nc1cccc(Br)c1,-25%,i
CCOc1ccc(NC(=O)CCS(=O)(=O)c2cc3c4c(c2)CCN4C(=O)CC3)cc1,-1%,-9%
O=C(O)c1cc(S(=O)(=O)O)ccc1O,-3%,-8%
COc1ccc(S(=O)(=O)N2CCCC2C(=O)NCc2ccccc2Cl)cc1 (configuration not stated),-6%,-6%
CCOC(=O)c1cc2sccc2n1CC(=O)N1c2ccccc2CC1C (configuration not stated),-10%,-13%
CC(=O)N1CCC(C(=O)NCCOc2cccc(C)c2)CC1,-5%,-4%
COc1ccc(NC(=O)c2c3c(nc4ccccc24)CCC3)cc1S(=O)(=O)N1CCOCC1,-16%,i
COC(=O)C(C)Sc1nnc(SC(C)C(=O)OC)s1 (configuration not stated),-16%,-11%[1.46 µM]
Cc1ccc(C(C)c2c(C)c([N+](=O)[O-])cc(C)c2[N+](=O)[O-])cn1 (configuration not stated),-17%,-11%
CC(=O)c1ccc(OC(C)C)c(CSc2nc(O)cc(=O)[nH]2)c1,?,.
CCC1(c2ccc(F)cc2)NC(=O)N(CC(=O)c2cc(C)n(C3CC3)c2C)C1=O (configuration not stated),-19%,-4%
Cc1ccc(S(=O)(=O)NCC(=O)NCC(=O)NCCc2ccccc2F)cc1C,-15%,-3%
O=C(OCc1nnc(-c2ccc(Cl)cc2)o1)c1ccncc1,?,-10%
Cc1noc(C)c1S(=O)(=O)Nc1ccc2c(c1)C(=O)N([C@H](C)CO)C[C@@H](C)[C@@H](CN(C)Cc1ccc3c(c1)OCO3)O2,-18%,i
COCc1cc(C)n(CC(=O)OC)c(=O)c1C#N,-1%,i
COc1ccc(C2=NOC(C)(c3nnc(-c4ccc(Cl)cc4)o3)C2)cc1 (configuration not stated),-8%,i
COc1cccc(NC(=O)CSc2nc(O)c(C/C=C/c3ccccc3)c(=O)[nH]2)c1,0%,-8%
CCN1CCN(C(=O)COCc2cc(-c3ccc4c(c3)OCO4)on2)CC1,-1%,-11%
CCOCCCNC(=O)C(NC(=O)c1ccc(NC(C)=O)cc1)c1ccc(Cl)cc1 (configuration not stated),-15%,-17%
C[C@@H]1CN([C@@H](C)CO)C(=O)CCCn2cc(nn2)CO[C@H]1CN(C)C(=O)c1cc(-c2ccccc2)on1,-9%,i
O=C(COC(=O)c1ccc(F)cc1F)Nc1ccc(S(=O)(=O)N2CCOCC2)cc1,-5%,i
c1ccc2c(c1)COc1c3ncccc3nn1-2,5%,-4%
SMILES,Vaccinia Venus,Vaccinia mCherry
Oc1ccc(C(c2nnnn2C2CCCCC2)N2CCOCC2)cc1 (configuration not stated),-12%,3%
Cc1cccc(NC(=O)NNC(=O)c2nn(C)cc2Br)c1,-8%,-11%
O=S(c1cc(Cl)cc(Cl)c1O)c1cc(Cl)cc(Cl)c1O,-21%,-19%
O=C(CSc1nc(=O)n(Cc2ccco2)c2c1CCC2)NCc1ccc(Cl)cc1,-12%,-19%
Fc1ccc(-n2c(-c3ccc4c(c3)OCO4)n[nH]c2=S)cc1Cl,-6%,-12%
COc1cccc(CNC(=O)c2cc(S(=O)(=O)N3CCOCC3)cn2C)c1,6%,9%
c1ccc(-c2nc(N3CCNCC3)nc3ccccc23)cc1,-7%,-14%
O=C(Cc1c[nH]c2ccccc12)NNC(=O)c1ccccc1,-4%,-4%
Cc1c(C#N)c2ccccc2n1C,-20%,i
CCOc1ccc(N(C(=O)CNC(=O)c2ccco2)C(C(=O)NC2CCCC2)c2ccncc2)cc1 (configuration not stated),-5%,i
Cc1ccc(C(=O)N(c2ccccn2)C(C)c2ccco2)cc1 (configuration not stated),-4%,-11%
O=C(Cc1ccccc1)N1CCN=C1SCc1cccc([N+](=O)[O-])c1,2%,i
O=C(c1ccco1)N1CCN(Cc2nnnn2C2CCCCC2)CC1,-7%,-18%
O=Cc1ccccc1-c1cn(CN2C(=O)c3ccccc3C2=O)nn1,-22%&-13%,i
CS(=O)(=O)N1CC2CCCN2c2ccc(C(F)(F)F)cc21 (configuration not stated),-9%,-7%
CSc1cccc(-n2nnc(-c3nsc(NC(=O)c4cccs4)n3)c2C)c1,5%,-11%
CCOC(=O)C1=C(N)OC2=C(C(=O)CCC2)C12C(=O)N1c3c(ccc(C)c32)C(C)=CC1(C)C (configuration not stated),-27%,-30%
COc1ccc(OCCn2ccnc2C)cc1,-6%,i
Cc1noc(C)c1COc1ccc(C(=O)N2CCN(S(=O)(=O)c3cccc(F)c3)CC2)cc1,-6%,i
O=C(COC(=O)C1CCCCC1)Nc1ccc(N2CCCCC2)cc1,-7%,.
Cn1ncc(Cl)c1C(=O)Nc1nnc(C2CC2)s1,-2%,i
COCCCN(C(=S)NC(=O)C12CC3CC(CC(C3)C1)C2)c1c(N)n(Cc2ccccc2)c(=O)[nH]c1=O,-7%,i
O=C(CCCc1nc(-c2ccc(Cl)cc2)no1)NC1CCCC1,-22%,-27%
O=C(CSc1n[nH]c(-c2ccccc2)n1)c1ccc(O)c(O)c1,-11%,0%
CCN(C=C1CC2C3CC=C4CC(O)CCC4(C)C3CCC2(C)C1=O)CC (configuration not stated),-17%,i
SMILES,Vaccinia Venus,Vaccinia mCherry
CO/N=C/C(NC(=O)c1ccc(C(F)(F)F)cc1)C(=O)OC (configuration not stated),8%,i
NS(=O)(=O)c1ccc(C(=O)O)cc1,-13%,i
O=C1c2ccccc2C(=O)N1Cc1cccnc1,-7%,i
COc1cccc(COC(=O)C(Cc2ccccc2)NC(=O)c2ccco2)c1 (configuration not stated),-16%,i
Cc1nc2ccc(S(=O)(=O)NCC(=O)NCc3ccc4c(c3)OCO4)cc2s1,?,.
CCn1ncc(Br)c1C(=O)Nc1cc(C)ccc1F,-14%,.
CC(C)CCNC(=O)[C@H](CSCc1ccccc1)N1Cc2ccccc2C1=O,-3%,3%
O=C(Nc1ccnn1C1CCN(Cc2ccc(CO)o2)CC1)c1ccc2c(c1)OCO2,2%,-20%
CC(C)CC(=O)Nc1nc2c(s1)CC(C(C)(C)C)CC2 (configuration not stated),-11%,-16%
Cc1ccc2nc(-c3ccc(Cl)cc3)c(CC3CCCCC3)n2c1,-17%,26%
COc1ccccc1CN(C(=O)c1ccco1)C(C(=O)NC1CCCC1)c1ccncc1 (configuration not stated),-22%,.
COc1ccc(OC)c(NC(=O)Nc2cc(NC(=O)Nc3cc(OC)ccc3OC)c(C)nc2C)c1,?,-25%
O=C(Nc1nc(-c2cccc([N+](=O)[O-])c2)cs1)C(c1ccccc1)c1ccccc1,?,.
CCc1nc2ccc(C(=O)NCCNC(C)=O)cn2c1N(CC)CCOC,-19%,7%
CCOc1ccc(NC(=O)CCS(=O)(=O)c2cccc3nonc23)cc1,2%,-7%
Cc1ccc(NC(=O)Cn2c(=O)n(CCCS(=O)(=O)C3CCCCC3)c(=O)c3ccccc32)cc1F,9%,-4%
O=C1c2ccccc2C(=O)c2c1cccc2-n1nnc2ccccc21,-11%[7.34 µM],-16%[7.34 µM]
CC1NC(=O)c2cccnc2-n2c1nc1cc(F)c(F)cc1c2=O (configuration not stated),-7%,-2%
COc1ccc(-n2c(=O)c3c(c4cc(OC)ccc4n3C)n(Cc3cc(C)ccc3C)c2=O)cc1,-2%,-15%
COc1cc(C2/C(=C(/O)c3ccccc3)C(=O)C(=O)N2c2ccccn2)ccc1O (configuration not stated),-18%,-26%
O=C(CC1C(=O)NCCN1Cc1ccccn1)NCCc1ccccc1F (configuration not stated),-6%,i
O=C(NCc1cccs1)C1CCCN1C(=O)Nc1ccccc1 (configuration not stated),-2%,-8%
COc1cccc(NC(=O)N2CCC(CN3CCOCC3)CC2)c1,-3%,-14%
O=C(COc1ccccc1Cl)NCc1ccccc1,2%,-8%
O=C(Cn1cnc2c(nnn2Cc2ccccc2)c1=O)N1CCCc2ccccc21,-3%,-22%
SMILES,Vaccinia Venus,Vaccinia mCherry
Nc1ncnc2c1ncn2[C@@H]1O[C@H](CNC(=O)[C@@H](N)C2CCCCC2)[C@@H](O)[C@H]1O,-6%,i
COc1ccc(OC)c(-c2csc(NC(=O)Cc3ccc(F)cc3)n2)c1,-28%,-25%
O=S(c1ccc2ccccc2c1)c1cnns1 (configuration not stated),10µM*,.
Cc1cccc(NC(=O)Cn2c(C)c(C#N)c3ccccc32)c1C,0%,-4%
CCc1nc(NCCN2CCOCC2)c2oc3ccccc3c2n1,-18%,.
O=C(N=C1c2ccccc2CN1c1ccccc1)c1cccc([N+](=O)[O-])c1,0%,-13%
CCn1c(CC(=O)Nc2ccccc2)nnc1SCC(=O)Nc1nncs1,5%,-15%
COc1ccccc1CNc1nc2c(S(=O)(=O)c3ccc(C)c(C)c3)nnn2c2ccc(Cl)cc12,?,?
Cc1ccc(/C=N\NC(=O)C2CC(=O)N(c3ccccc3)C2)o1 (configuration not stated),-2%,-8%
S=C(Nc1ccc2c(c1)OCO2)Nc1ccc2c(c1)OCO2,-15%,-20%
COC(=O)C[C@H]1C[C@@H]2c3cc(NC(=O)CN(C)C)ccc3O[C@@H]2[C@H](CO)O1,-5%,-8%
Cc1nc(Cl)c2c(n1)NC1=C(O2)C(=O)CCC1,85%[activator],-9%
O=C(O)c1nn(CC(=O)N2CCN(S(=O)(=O)c3ccc(Cl)cc3)CC2)c(=O)c2ccccc12,-9%,-3%
CC(C)=CC(=O)OCC(=O)Nc1cc(C)ccc1C,-9%,-14%
CC(=O)NC1C2CN3CCN(C2)CC1(Cc1ccccc1)C3 (configuration not stated),-13%,-8%
N#Cc1c(NC(=O)CSc2nnc(-c3ccncc3)n2CC2CCCO2)sc2c1CCCC2 (configuration not stated),-13%,-23%
O=C1CCC(C(=O)N2CCCO2)CN1Cc1cccc(C(F)(F)F)c1 (configuration not stated),-7%,-14%
O=C(O)c1ccccc1Nc1ccc([N+](=O)[O-])cc1,23%,?
O=C1c2ccccc2C(=O)N1CCCCN(C(=O)c1cc2ccccc2oc1=O)c1ccc(Cl)cc1,-6%,-21%
O=C(O)C1CCCN1S(=O)(=O)c1cccc2nsnc12 (configuration not stated),-8%,-11%
CC(=O)c1cccc(NC(=O)Cc2coc3cc4c(cc23)CCC4)c1,-23%,-29%
COc1cc(-c2nc3ccccn3c2/N=C/c2cc(OC)c(O)cc2Cl)ccc1O,10%,?
Cc1ccc(S(=O)(=O)NCC(C)n2cncn2)cc1C (configuration not stated),-2%,i
Cc1ccc(N2C(=O)CC(c3c[nH]c4ccccc34)C2=O)cc1 (configuration not stated),4%,i
COc1ccccc1NC(=O)N1CCCC1C(=O)NCc1ccc2c(c1)OCO2 (configuration not stated),-9%,.
SMILES,Vaccinia Venus,Vaccinia mCherry
O=C(CN1C(=O)C2CCCCC2C1=O)Nc1cc(C(F)(F)F)ccc1N1CCCC1 (configuration not stated),-10%,-11%
COc1ccc(-c2noc(N3CCC(C(=O)NCc4ccc(Cl)cc4)CC3)n2)cc1,?,-2%
Cc1ccccc1Nc1c(-c2ccc(N3CCOCC3)cc2)nc2ccccn12,-8%,-1%
CCCCn1c(N)c(N(CCOC)C(=O)CN(C)S(=O)(=O)c2ccc(C)cc2)c(=O)[nH]c1=O,-13%,i
O=C(Nc1ccc(S(=O)(=O)Nc2ncccn2)cc1)C12CC3CC(CC(C3)C1)C2,-7%,i
CCc1ccccc1NC(=O)c1sc(-n2nc(C)c(Cc3ccccc3)c2C)nc1C,-9%,-17%

# Rewritten as tab-separated lines: two of the compounds above
SMILES	Vaccinia Venus	Vaccinia mCherry
O=C(CN1C(=O)C2CCCCC2C1=O)Nc1cc(C(F)(F)F)ccc1N1CCCC1 (configuration not stated)	-10%	-11%
CCc1ccccc1NC(=O)c1sc(-n2nc(C)c(Cc3ccccc3)c2C)nc1C	-9%	-17%

# Molecules listed so far that contain fluorine (15):
SMILES,Vaccinia Venus,Vaccinia mCherry
Nc1cc(F)ccc1N1CCCCCC1,-2%,i
CCC1(c2ccc(F)cc2)NC(=O)N(CC(=O)c2cc(C)n(C3CC3)c2C)C1=O (configuration not stated),-19%,-4%
Cc1ccc(S(=O)(=O)NCC(=O)NCC(=O)NCCc2ccccc2F)cc1C,-15%,-3%
O=C(COC(=O)c1ccc(F)cc1F)Nc1ccc(S(=O)(=O)N2CCOCC2)cc1,-5%,i
Fc1ccc(-n2c(-c3ccc4c(c3)OCO4)n[nH]c2=S)cc1Cl,-6%,-12%
CS(=O)(=O)N1CC2CCCN2c2ccc(C(F)(F)F)cc21 (configuration not stated),-9%,-7%
Cc1noc(C)c1COc1ccc(C(=O)N2CCN(S(=O)(=O)c3cccc(F)c3)CC2)cc1,-6%,i
CO/N=C/C(NC(=O)c1ccc(C(F)(F)F)cc1)C(=O)OC (configuration not stated),8%,i
CCn1ncc(Br)c1C(=O)Nc1cc(C)ccc1F,-14%,.
Cc1ccc(NC(=O)Cn2c(=O)n(CCCS(=O)(=O)C3CCCCC3)c(=O)c3ccccc32)cc1F,9%,-4%
CC1NC(=O)c2cccnc2-n2c1nc1cc(F)c(F)cc1c2=O (configuration not stated),-7%,-2%
O=C(CC1C(=O)NCCN1Cc1ccccn1)NCCc1ccccc1F (configuration not stated),-6%,i
COc1ccc(OC)c(-c2csc(NC(=O)Cc3ccc(F)cc3)n2)c1,-28%,-25%
O=C1CCC(C(=O)N2CCCO2)CN1Cc1cccc(C(F)(F)F)c1 (configuration not stated),-7%,-14%
O=C(CN1C(=O)C2CCCCC2C1=O)Nc1cc(C(F)(F)F)ccc1N1CCCC1 (configuration not stated),-10%,-11%
